RGS16-Gao HTS: modulates binding between human RGS16 and Galphao; bead-based flow cytometry RGS16-Galphao binding, fluorescence; actives lie on both sides; binding response (% of control), % at 10 µM; hit rate 0.38% among 220,000;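 active = below 25% or above 175%, edge rows of some plates excepted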;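 also: Galphao activated by GDP with aluminum fluoride before binding; 100% = wells without compound and 0% = beads without RGS; some results beyond the cut were filed as inactive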
GALR2 agonist: GALR2 (human) receptor agonism; O43603; GALR2-expressing cells, agonist activation read-out; activation, %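 (tested at 5 µM)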; hit rate 0.48% among 140,000; AID 803;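 active = above mean plus 3 SD of all compounds, about 5% in these data, not always enough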;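 also: 0% = vehicle buffer wells and 100% = reference agonist at full effect; tested in CHO reporter cells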
PKD1 kinase inh: blocks activity of human protein kinase D1; inhibition, %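 (about 10 µM by stock and volumes)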; PKD1 kinase fluorescence polarization assay; Q15139; hit rate 0.056% among 200,000;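 active = inhibition of 50% or more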;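 also: controls were vehicle for no effect and a reference inhibitor for full effect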
Target sequence (Q15139 whole entry, looked up): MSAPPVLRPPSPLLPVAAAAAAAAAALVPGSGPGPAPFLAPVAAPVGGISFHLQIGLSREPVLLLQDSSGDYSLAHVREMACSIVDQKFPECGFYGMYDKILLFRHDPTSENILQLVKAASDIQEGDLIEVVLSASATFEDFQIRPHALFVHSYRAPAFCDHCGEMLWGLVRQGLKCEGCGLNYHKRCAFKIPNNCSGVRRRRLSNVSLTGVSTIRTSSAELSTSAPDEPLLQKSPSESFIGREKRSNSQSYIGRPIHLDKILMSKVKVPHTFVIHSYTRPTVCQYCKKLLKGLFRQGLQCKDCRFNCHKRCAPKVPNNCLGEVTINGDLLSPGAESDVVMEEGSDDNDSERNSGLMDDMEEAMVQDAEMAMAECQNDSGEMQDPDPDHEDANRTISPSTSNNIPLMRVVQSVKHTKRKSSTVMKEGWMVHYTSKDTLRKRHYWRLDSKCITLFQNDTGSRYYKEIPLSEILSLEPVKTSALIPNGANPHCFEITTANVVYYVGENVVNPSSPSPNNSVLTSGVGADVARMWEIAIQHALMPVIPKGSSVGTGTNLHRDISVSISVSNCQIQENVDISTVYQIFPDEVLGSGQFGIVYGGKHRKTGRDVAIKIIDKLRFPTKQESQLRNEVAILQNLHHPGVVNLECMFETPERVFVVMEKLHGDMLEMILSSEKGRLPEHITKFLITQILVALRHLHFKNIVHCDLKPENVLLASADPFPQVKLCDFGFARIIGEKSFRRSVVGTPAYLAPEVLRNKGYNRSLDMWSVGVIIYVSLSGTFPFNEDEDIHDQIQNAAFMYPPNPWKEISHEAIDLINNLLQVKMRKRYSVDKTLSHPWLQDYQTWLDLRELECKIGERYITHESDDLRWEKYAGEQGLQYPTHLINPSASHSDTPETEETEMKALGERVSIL
INS promoter inh: TRM-6 insulin promoter activity inhibition; TRM-6 cells (human fetal islet line), insulin promoter-eGFP reporter, imaging; reporter expression induced with tamoxifen; AID 1273; inhibition, % at 2 µM; hit rate 0.9% among 130,000;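 active = inhibition above the mean plus 3 SD, with well images judged a real hit on visual review, cut at about 60% in these data, passing the limit was not always enough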
HSV replic up: increases HSV replication in cells | HSV replication augmentation in cells, fold increase | maximum fold increase | AID 1956 | hit rate 0.005% among 220,000;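 active = peak rise of 1.5-fold or more in the series; tested in PC3 cells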;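 also: first round at 10 µM; read as green reporter fluorescence; hits show the peak of a series up to 25 µM; 1 = signal of infected wells without compound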
INS promoter inh cell count: recorded beside INS promoter inh, whose call it bears; normalized cell count, %; measured here: cell count, toxicity; reference of the scale not given here;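 cells exposed to compound for 48 h; stained nuclei by imaging scaled within each plate; lower means fewer cells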
HSV replic up primary fold: recorded beside HSV replic up, whose call it bears; fold increase; compound at 10 µM; measured here: primary screen fold increase 10 uM; tested in PC3 cells;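 GFP signal in the first replicate; 1 = infected wells without compound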
Numbers without * were called inactive; i = inactive; . = no result given.

Under each structure – INS promoter inh cell count	RGS16-Gao HTS	HSV replic up	PKD1 kinase inh	GALR2 agonist	INS promoter inh	HSV replic up primary fold
- CCN1C(=O)/C(=C2\SC(=S)N(c3c(C)n(C)n(-c4ccccc4)c3=O)C2=O)c2ccccc21
  .	96	.	-5	-0.5	.	.
- CCOC(=O)c1cc2c(=O)n3ccccc3nc2n(Cc2ccco2)c1=NC(=O)c1ccccc1OC
  .	93	i	-7	.	.	1.1
- O=C(OCCN1CCOCC1)c1ccc2c(c1)OCCO2
  155	105	i	-7	0.0	-17	0.94
- O=C(COC(=O)C1(c2ccc(F)cc2)CCCC1)NCc1ccc2c(c1)OCO2
  .	102	i	2	0.1	.	1
- COc1ccc(N(CCC#N)S(=O)(=O)c2cccc3nsnc23)cc1
  108	97	i	-14	-0.1	17	0.8
- CC1=Nc2cc(C(=O)NCCCOC(C)C)ccc2Sc2ccccc21
  136	101	i	-2	.	-67	0.75
- COc1ccccc1-c1nc2cc3ccccc3cc2nc1-c1ccccc1OC
  .	108	i	-7	-1.2	.	0.98
- CCC(=Nc1ccc(N)cc1)C1=C(O)C(C(=O)OC)C(C)(C)CC1=O (centres undefined)
  .	86	i	2	-1.1	.	1
- Cc1cccc2sc(NC(=O)CNS(=O)(=O)c3ccc(Br)s3)nc12
  .	102	i	-1	-1.1	.	0.8
- CC(=O)Nc1ccc(S(=O)(=O)N2CCN(c3cccc(C)c3C)CC2)cc1
  .	100	i	-5	-2.0	.	0.83
- CC(=O)Nc1ccc(C(=O)CSc2nccc(=O)[nH]2)cc1
  .	111	i	5	.	.	1.2
- N#C/C(=C\c1ccc(-c2ccccc2)cc1)c1nc(-c2ccco2)cs1
  .	106	i	-6	0.2	.	0.94
- Cc1cc(C(=O)OCC(=O)N2CCN(c3ccccc3)CC2)c2ccccc2n1
  107	102	i	-5	-1.8	-3	0.88
- COc1cc2c(c(OC)c1OC)-c1c(cc3c(c1OC)OCO3)C1OC2[C@@H](C)[C@H]1C (some centres undefined)
  .	104	i	.	.	.	0.87
- Cc1ccc(C2/C(=C(/O)c3ccc(Br)cc3)C(=O)C(=O)N2Cc2ccco2)o1 (centres undefined)
  127	101	i	-2	-1.3	25	0.95
- Cc1ccc(-c2nnc(-n3nnc4ccccc43)c3ccccc23)cc1
  49	103	i	9	-1.2	0	0.91
- COC(=O)c1cc(NC(=O)c2c(Cl)cnn2C)cc(C(=O)OC)c1
  134	101	i	-10	0.4	-14	0.89
- COc1cccc(NC(=S)NC2CC(C)(C)NC(C)(C)C2)c1
  109	110	i	-8	-1.0	19	0.98
- COc1ccc(/C=C/c2noc(-c3ccccc3O)n2)cc1
  130	101	i	-8	-0.1	-10	0.95
- O=C(CCc1nc2ccccc2c(=O)[nH]1)Nc1ccc(N2CCCCC2)cc1
  110	110	i	-1	.	57	0.88

The results go on.
Under each structure – INS promoter inh cell count	RGS16-Gao HTS	HSV replic up	PKD1 kinase inh	GALR2 agonist	INS promoter inh	HSV replic up primary fold
- COc1ccc(C2C(C#N)=C(N)N(c3cccnc3)C3=C2C(=O)CCC3)cc1Cn1cc([N+](=O)[O-])cn1 (centres undefined)
  .	101	i	5	0.9	.	1
- CCCCOCC(O)CN1CCN(C(C)=O)CC1 (centres undefined)
  .	103	i	1	-3.3	.	1.1
- COC(=O)CSc1nc(N)nc(C)c1Cl
  .	100	i	-6	.	.	0.94
- COc1ccc(CCN(C)CCCN2CC(c3ccccc3)CC2=O)cc1OC (centres undefined)
  92	100	i	-1	.	36	0.91
- Cc1ccc(NC(=O)CCOc2ccccc2)cc1S(=O)(=O)Nc1ccccc1Cl
  141	98	i	-6	0.1	0	0.94
- CCN1CCN(Cc2cccc(Oc3ccc(Cl)cc3)c2)CC1
  128	62	i	-3	-0.1	-30	0.88
- CC(C)Sc1nc2ccc(Br)cc2[nH]1
  .	104	i	0	.	.	0.89
- O=C(c1ccc(CNc2c(N3CCOCC3)c(=O)c2=O)cc1)N1CC=C(c2ccccc2)CC1
  .	97	i	1	-1.2	.	0.9
- N#CC12CCCCC1CC1CCCCC1(C#N)N2N (centres undefined)
  .	99	i	.	.	.	1.2
- COc1ccc(C(=O)CSc2nnc(-c3ccco3)n2C)cc1
  98	86	i	-4	-0.5	23	1.1
- CCCc1cc2c(OC(=O)CC)c(-c3ccc(C(=O)OCC)o3)c(=O)oc2cc1OC
  83	111	i	7	0.1	-30	1
- CCCc1cc(=O)[nH]c(SCC(=O)Nc2ccc3c(c2)CCC3)n1
  80	113	i	8	.	46	0.93
- CSCCn1c(C(C)(C)C)cc(C(=O)O)c1C
  .	104	i	.	.	.	1
- COc1ccccc1-n1c(O)c(C=NCc2ccccn2)c2ccccc2c1=O
  .	98	i	.	.	.	0.87
- C/C(=N\NC(=O)CNC(=O)c1ccc2c(c1)OCO2)c1ccco1
  82	94	i	-8	0.1	-59	0.95
- COC(=O)c1ccc(NS(=O)(=O)c2ccccc2)o1
  .	98	i	-2	.	.	0.98
- CCc1ccc(NC(=O)c2cc(-c3ccc(F)cc3)on2)cc1
  .	100	i	-3	.	.	0.88
- O=C(NCCCn1ccnc1)c1cc(-c2ccccc2)on1
  73	98	i	-5	.	-16	0.91
- Fc1cccc(COc2ccccc2C(=S)N2CCCC2)c1
  111	103	i	-6	.	-5	1.1
- CCOC(=O)c1[nH]c2ccccc2c1NC(=S)Nc1cccc(C)c1
  85	.	.	-15	-1.6	14	.

Molecules listed so far with a Cl atom:
Under each structure – INS promoter inh cell count	RGS16-Gao HTS	HSV replic up	PKD1 kinase inh	GALR2 agonist	INS promoter inh	HSV replic up primary fold
- COC(=O)c1cc(NC(=O)c2c(Cl)cnn2C)cc(C(=O)OC)c1
  134	101	i	-10	0.4	-14	0.89
- COC(=O)CSc1nc(N)nc(C)c1Cl
  .	100	i	-6	.	.	0.94
- Cc1ccc(NC(=O)CCOc2ccccc2)cc1S(=O)(=O)Nc1ccccc1Cl
  141	98	i	-6	0.1	0	0.94
- CCN1CCN(Cc2cccc(Oc3ccc(Cl)cc3)c2)CC1
  128	62	i	-3	-0.1	-30	0.88

Compound profiles (already shown). Values in the order: INS promoter inh cell count	RGS16-Gao HTS	HSV replic up	PKD1 kinase inh	GALR2 agonist	INS promoter inh	HSV replic up primary fold
CSCCn1c(C(C)(C)C)cc(C(=O)O)c1C across the screens: .	104	i	.	.	.	1
Cc1ccc(NC(=O)CCOc2ccccc2)cc1S(=O)(=O)Nc1ccccc1Cl across the screens: 141	98	i	-6	0.1	0	0.94
COc1ccccc1-n1c(O)c(C=NCc2ccccn2)c2ccccc2c1=O across the screens: .	98	i	.	.	.	0.87
CCN1CCN(Cc2cccc(Oc3ccc(Cl)cc3)c2)CC1 across the screens: 128	62	i	-3	-0.1	-30	0.88
CCCc1cc(=O)[nH]c(SCC(=O)Nc2ccc3c(c2)CCC3)n1 across the screens: 80	113	i	8	.	46	0.93

Next compounds
Under each structure – INS promoter inh cell count	RGS16-Gao HTS	HSV replic up	PKD1 kinase inh	GALR2 agonist	INS promoter inh	HSV replic up primary fold
- CCC(C)N(CCNC(=O)CC1Oc2ccc(C)cc2NC1=O)C1CCCCC1 (centres undefined)
  .	105	i	-4	-1.6	.	1
- Cc1nnc(SCC(=O)c2ccc(C(C)C)cc2)s1
  .	106	i	7	.	.	0.99
- CCOC(=O)c1cnc2c(C(=O)OC)cccc2c1NCCN1CCOCC1
  127	103	i	-2	0.2	20	1.2
- CCOC(=O)/C(=C\c1ccc(C)cc1)NC(=O)c1ccccc1
  .	96	i	-7	.	.	0.92
- CN(CC1CCCO1)S(=O)(=O)c1ccc(C(=O)Nc2ccc3c(c2)OCO3)cc1 (centres undefined)
  90	97	.	-3	.	-62	.
- CCn1c(=S)[nH]c2cc(S(=O)(=O)N3CCCCC3)ccc21
  99	99	i	1	-2.2	-35	0.89
- COC(=O)c1ccc(Oc2nc(C)cc(Oc3ccccc3)n2)cc1
  91	92	i	-6	1.1	-16	1
- CNc1nc(SCc2ccc(C)cc2)nc2c1CCCC2
  115	168	i	-1	-2.4	17	0.94
- CCCn1cc(CN2CCN(Cc3ccc(C)o3)C(CCO)C2)c(C)n1 (centres undefined)
  .	102	i	-2	.	.	1.1
- CCOC(=O)c1cnc2c(c(C)nn2CC)c1NC1CC1
  .	97	i	4	.	.	0.97
- O=C(O)CCCN1C(=O)c2ccc(Oc3cccc([N+](=O)[O-])c3)cc2C1=O
  124	98	i	-5	.	-57	0.94
- Cc1ccc(Nc2nnc(C(C)(C)C)c(=O)n2N)cc1
  .	101	i	-1	-1.2	.	0.95
- S=C(Nc1ccc(Br)cc1)N1CCCC1
  .	108	i	-6	-0.9	.	0.93
- NS(=O)(=O)c1ccc(NC2=CC(c3ccc([N+](=O)[O-])cc3)N(c3ccc(S(N)(=O)=O)cc3)C2=O)cc1 (centres undefined)
  .	96	i	.	.	.	0.96
- Cc1ccc2ncnc(Oc3ncccc3NC(=O)C(C)(C)C)c2c1
  .	96	i	.	.	.	0.95
- CCOC(=O)c1[nH]c(C)c(C(=O)NCc2ccc(C)cc2)c1C
  .	109	i	0	-0.8	.	0.7
- Cc1cc(C(=O)Nc2cccc3cccnc23)ccc1[N+](=O)[O-]
  .	71	i	-3	.	.	1
- COc1ccc(OC)c(NC(=O)Cc2nn(C)c(=O)c3ccccc23)c1
  67	112	i	0	-1.8	-308	1.1
- CC(=O)Nc1cccc(-c2nc3ccccc3c(=O)o2)c1
  16	96	i	-8	-1.6	0	0.89
- CN(CC#CC1(O)c2ccccc2-c2ccccc21)Cc1ccccc1
  57	105	i	-10	-1.3	-70	0.9

(more compounds)
Under each structure – INS promoter inh cell count	RGS16-Gao HTS	HSV replic up	PKD1 kinase inh	GALR2 agonist	INS promoter inh	HSV replic up primary fold
- Cc1cc(NC(=S)N(Cc2ccc(Br)cc2)Cc2ccc(C(=O)O)cc2)ccc1Cl
  .	97	i	-5	.	.	1.1
- O=C(CSc1nnc2scc(-c3ccc(F)cc3)n12)NCc1ccco1
  136	100	i	-5	-2.4	-71	0.83
- COc1ccc(CNC(=O)c2c(C)cc(=O)oc2C)cc1OC
  .	107	i	-11	-1.5	.	0.91
- CC1(C)CC(=O)C(C(=O)/C=C/NCCc2ccccc2)C(=O)C1
  62	105	i	-4	1.6	14	0.92
- O=c1[nH]cc([N+](=O)[O-])cc1Br
  76	133	i	-4	-1.5	29	1
- CCC(C)(C)n1nnnc1C(c1cc2cc(C)cc(C)c2[nH]c1=O)N1CCN(Cc2ccc3c(c2)OCO3)CC1 (centres undefined)
  71	105	.	-4	-1.9	50	.
- COc1ccc(N2C(=O)C3CCCN3C2c2cccc(OC)c2)cc1 (centres undefined)
  .	103	i	8	-1.7	.	1.3
- COc1ccc(-n2nnc3c(=O)n(Cc4cccc(C)c4)cnc32)cc1
  93	100	i	-3	-1.5	17	0.99
- CCOC(=O)C1CCN(C(=O)Nc2ccc(Cl)cc2Cl)CC1
  111	93	i	-1	-1.5	21	1
- CCOc1ccc2nc(NCCNC(=O)C(C)(C)C)c(C)cc2c1
  .	102	i	-3	.	.	0.91
- NS(=O)(=O)c1ccc(NC(=O)c2ccc(S(=O)(=O)N3CCc4ccccc43)cc2)cc1
  95	129	i	1	.	-43	0.91
- COc1ccc(C2C(C(=O)c3cccs3)=C(O)C(=O)N2Cc2cccnc2)cc1OC (centres undefined)
  114	98	i	3	.	21	0.82
- O=C(CSC1=NCCS1)N1CCOCC1
  111	107	i	8	-3.0	16	1.1
- NC(=O)C1CNc2ccccc2O1 (centres undefined)
  129	101	i	-3	-1.5	37	1.1
- COCCCNC(=O)Cn1cc(/C=C(\C#N)C(=O)N2CCN(c3ccccc3)CC2)c2ccccc21
  140	62	i	-4	-0.9	-14	1
- CCN(CC)CC(=O)c1c[nH]c2ccc(OC)cc12
  121	100	i	9	0.2	-21	1
- O=[N+]([O-])c1ccc(Cl)c(/C=N/N2CCN(C3c4ccccc4-c4ccccc43)CC2)c1
  67	92	i	-6	0.5	13	1
- COC(=O)c1ccc(CNC(=O)c2ccc(COc3ccccc3)cc2)cc1
  110	127	i	-8	2.4	37	0.91
- CCCc1nc2ccccc2c(=O)n1/N=C/c1c(C)[nH]n(-c2ccc(C)cc2)c1=O
  .	86	i	9	-1.3	.	0.91
- O=C(CSc1nnc(-c2cccnc2)n1Cc1ccco1)Nc1nc(-c2ccc(F)cc2)cs1
  .	97	i	0	-2.3	.	0.88
- CCN1C(=O)N[C@@H](c2cccs2)C(C(C)=O)=C1C
  .	94	i	.	.	.	0.9
- CCc1ccc(/C=C/C(=O)C2C(=O)c3ccccc3C2=O)cc1
  .	102	i	-2	-1.7	.	0.96
- CS(=O)(=O)N(CC(=O)NCC1CCCO1)c1cccc([N+](=O)[O-])c1 (centres undefined)
  53	104	i	-8	.	-40	1.1

Compound activity from PubChem BioAssay.
